Screens (PubChem BioAssay)
TRPML1 agonist – qHTS for Agonists of the Human Mucolipin Transient Receptor Potential 1 (TRPML1); Mucolipin-1 (Homo sapiens), Q9GZU1; TRPML1-expressing cells, Ca2+ dye fluorescence, FDSS; host cell line not named in the record; reference of the full effect not given here; activation, % (concentration not given with the values); 410,000 compounds, 0.12% hits; AID 624414, 2012; in the data active = activation above about 50%; inconclusive = about 30% to 50%; inactive = below about 30%; also: 0% is about no effect; the text of the record puts the active cut at 80%
Target sequence (Q9GZU1 whole entry, looked up): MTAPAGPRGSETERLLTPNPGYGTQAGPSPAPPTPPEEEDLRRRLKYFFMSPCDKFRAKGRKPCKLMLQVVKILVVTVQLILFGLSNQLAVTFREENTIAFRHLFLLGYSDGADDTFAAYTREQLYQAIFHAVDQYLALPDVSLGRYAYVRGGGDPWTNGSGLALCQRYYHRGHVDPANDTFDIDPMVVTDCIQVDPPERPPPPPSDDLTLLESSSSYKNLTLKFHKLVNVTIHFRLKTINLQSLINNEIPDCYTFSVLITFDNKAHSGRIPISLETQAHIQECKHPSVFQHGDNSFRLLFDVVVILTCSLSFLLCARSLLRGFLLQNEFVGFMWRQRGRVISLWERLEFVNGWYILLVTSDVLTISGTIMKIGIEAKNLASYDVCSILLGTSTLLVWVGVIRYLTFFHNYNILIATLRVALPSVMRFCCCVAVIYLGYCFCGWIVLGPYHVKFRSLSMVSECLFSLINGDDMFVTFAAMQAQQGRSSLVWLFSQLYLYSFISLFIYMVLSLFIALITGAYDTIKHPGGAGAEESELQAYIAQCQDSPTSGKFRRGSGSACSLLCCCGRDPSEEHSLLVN
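Calcium fluorescence on an FDSS kinetic reader gave the read-out. Tet-induced TRPML1-DL cells were plated overnight, dye-loaded (Ca8 with quencher, 45-90 min, room temperature, dark), then read 110 s after compound addition, and again 110 s after 4uM final 54-4 (EC80).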
TRPV1 potentiator – HTS Assay for Compounds that Act as Potentiators of the Vanilloid Receptor 1. potentiation, % at 8.33 µM. TRPV1-expressing cells, Fluo-8 calcium influx, capsaicin EC20 potentiation; host cell line not named in the record; control for the full effect not named in the record. AID 540277, 2011. 320,000 compounds, 0.02% hits. Transient receptor potential cation channel subfamily V member 1 (Homo sapiens), Q8NER1; active means potentiation above 80%; inconclusive means 30% to 80%; inactive means below 30%; also: 0% is about no effect
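TRPV1-expressing cells were cultured overnight at 35.5C and loaded with Fluo-8 calcium dye for 40 to 90 min at room temperature. After a 10 s baseline, compound was added and calcium influx was read kinetically for 3 min (ex 480/em 520 nm).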
TRPML1 inh – qHTS for Inhibitors of the Human Mucolipin Transient Receptor Potential 1 (TRPML1) | Mucolipin-1 (Homo sapiens), Q9GZU1 | TRPML1-inducible cells, Ca2+ dye fluorescence, FDSS; hits give low values; inhibition of EC80 agonist-evoked calcium signal | activity change, negative = inhibition, % (no concentration beside the values) | 390,000 compounds, 0.02% hits | AID 624415, 2012; in the data active means activity change below about -50%; inconclusive means about -30% to -50%; inactive means above about -30%;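 also: stimulus is agonist 54-4 at its EC80 concentration; % is scaled to controls: 0 for no effect and ±100 for the full control effect; compound concentration not given in the record; the text of the record puts the active cut at -80%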
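Calcium fluorescence in TRPML1-DL cells induced overnight with Tet: a 110 s read after compound pin addition, then a 110 s antagonist read after challenge with 54-4 at 4 uM final (EC80).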
ClpP mod – qHTS Assay for Activators of ClpP; 340,000 compounds, 1.9% hits; ATP-dependent Clp protease proteolytic subunit (Bacillus subtilis (strain 168)), P80244; purified B. subtilis ClpP, FRET peptide cleavage, 20 min; AID 651965, 2013; Potency, µM (series often up to 57.5 µM), without a hit: at the top dose activity change, negative = active; active = well fitted falling curve with a large enough effect; inconclusive = small, poorly fitted or top-dose-only effect; inactive = no such curve, though single readings can be large or run the other way; also: potency is read from the fitted curve at half-maximal effect; the source files actives as falling curves though it sought activators and does not explain the sign; nearly all actives have a fitted effect of over 65% in size; many hits overshoot -100%
Target sequence (P80244 whole entry, looked up): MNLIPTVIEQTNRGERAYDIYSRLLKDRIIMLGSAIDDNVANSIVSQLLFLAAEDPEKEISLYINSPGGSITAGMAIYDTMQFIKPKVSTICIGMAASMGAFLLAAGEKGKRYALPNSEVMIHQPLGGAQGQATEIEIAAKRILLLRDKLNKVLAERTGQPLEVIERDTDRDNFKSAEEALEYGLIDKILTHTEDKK
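Buffer: 100 mM Tris/HCl pH8, 100 mM KCl, 0.05% low protease BSA, 2.5% glycerol, 0.01% Tween-20. ClpP 10 microg/mL final; 20 min RT; delta FRET normalized to ADEP and DMSO controls.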
Sfp inh – qHTS Assay for Inhibitors of Bacillus subtilis Sfp phosphopantetheinyl transferase (PPTase) | AID 1490, 2009 | Biochemical Sfp PPTase activity, qHTS | 310,000 compounds, 3.5% hits | Potency, µM, for inactives: max response, negative = inhibition, usual class: inhibitors; active = well fitted inhibition curve with a large enough effect; inconclusive = small, poorly fitted or top-dose-only effect, or another doubt; inactive = no such curve, though single readings can be large or run the other way;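 also: the enzyme is Sfp with the accession as filed and its product quenches rhodamine fluorescence; potency is read from the fitted curve at half-maximal effect; 0% = enzyme reaction without inhibitor and -100% = no enzyme wells; top concentration of the series not given in the record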
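Fluorescence-quenching assay with 15 nM Sfp, 5 uM rhodamine-CoA and 12.5 uM BHQ-2-labelled ybbR peptide in pH 7.6 Hepes/MgCl2 buffer. Enzyme was pre-incubated with compound for 15 min at room temperature. Rate was taken from the 30-min fluorescence change (525/598 nm).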
PINK1 modulator – A Quantitative High throughput Screen to Identify Chemical Modulators of PINK1 Expression; PINK1 immunofluorescence, high-content cytometry, 24 h; Potency, µM (highest dose often 76.6 µM), for the others: at the highest dose activation (PINK1 increase), usual class: activators; 410,000 compounds, 0.2% hits; active = well fitted activation curve with a large enough effect; inconclusive = small, poorly fitted or top-dose-only effect; inactive = flat fitted curve, though single readings scatter; cell line not stated here;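 also: potency is read from the fitted curve at half-maximal effect; % of control where 0% means no effect; nearly all actives have a fitted effect of over 65% in size; a mitochondrial uncoupler was the plate control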
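Compound titrations (5 concentrations, 24 h) on a stable cell line; DMSO and CCCP controls. Endpoint: fixed-cell PINK1 immunofluorescence with mitochondrial, cell and nuclear markers, scanned by microplate cytometer.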
Menin MLL FP FL – qHTS Assay for Inhibitors Targeting the Menin-MLL Interaction in MLL Related Leukemias: Competition With Fluorescein Labeled MLL-derived Peptide | Fluorescence polarization, fluorescein-MLL peptide displacement from menin | FP activity change, % at 61.4 µM | 290,000 tested, under 10 active; inconclusive = falling polarisation curve, or a change in total fluorescence; inactive = total fluorescence flat and polarisation flat or rising; no compound was filed as active; the % refers to the polarisation; negative = inhibition;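 also: % of control where 0% means no effect; inhibitors lower the polarisation; unlabelled MLL peptide was the positive control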
* = called active by the depositor; u = inconclusive; x = not tested or not shown; & = joins results of further samples; [ ] = another dose, or the depositor's remark.

SMILES	TRPML1 agonist	TRPV1 potentiator	TRPML1 inh	ClpP mod	Sfp inh	PINK1 modulator	Menin MLL FP FL
Cc1ccccc1/C=N\NC(=O)c1csnn1	-0.4	x	-20	3.1%	14µM*	-1.1%	4.3
Cc1c(C(=O)NCC(c2ccco2)N(C)C)oc2c(Cl)cccc12 (stereo not given)	-0.7	-20	-5	-7.5%	x	-0.8%	x
O=C1/C(=C\c2ccccn2)SC(=S)N1c1ccc(S(=O)(=O)Nc2nccs2)cc1	0.7	-7	1	x	56µM*	0.4%	2.8
Cc1ccc(C(=O)NCC(=O)OCC(=O)NC2CCS(=O)(=O)C2)cc1C (stereo not given)	-0.7	-6	-15	x	6%	1.7%	1.2
O=C(O)C1CCC(=O)N1C1c2ccccc2Oc2ccccc21 (stereo not given)	0.5	-8	7	0.1%	14%	0.3%	2.7
COc1ccc(C(=O)NOCc2ccccc2)cc1	0.3	5	-4	-0.8%	x	-0.3%	x
O=c1cc(Cl)c(-c2ccccc2)nn1Cc1ccc(Cl)cc1	2.7	4	-15	-0.1%	-2%	2.7%	-3.6
CCCN(C(=O)CCNC(=O)Cn1cnc2ccccc2c1=O)c1cccc(Cl)c1	0.0	7	9	x	23%	-0.2%	5.2
Cc1ccc(C(=O)NC2CCCC2)s1	0.0	0	10	0.2%	16%	2.9%	x
COc1ccc2sc(-c3ccc(SC)cc3)c(-c3ccc(O)cc3)c2c1	0.4	x	-1	4.5%	x	-0.9%	x
CSc1ccc(S(=O)(=O)Nc2cccc(F)c2)cc1	x	7	x	x	12%	x	4.0
O=c1c2ccccc2oc2cc(C#Cc3ccccn3)ccc12	-0.6	x	5	-3.8%	x	-0.1%	x
Cc1cccc(C(=O)NCC(=O)NCCSc2ccc(Br)cc2)c1	0.9	5	1	0.1%	x	-1.2%	x
Cc1cc(-c2ccc(C)c(S(=O)(=O)Nc3cccc(C#N)c3)c2)on1	-0.3	x	19	-1.1%	x	0.1%	x
O=C(Cc1coc2cc(O)ccc12)NNC(=O)c1ccc(Br)s1	0.4	x	-4	-7.3%	x	0.4%	x
Cc1c(NC(=O)Nc2cccc(Cl)c2Cl)c(=O)n(-c2ccccc2)n1C	-0.3	9	-12	2.5%	9%	1.5%	-3.3
Nc1nonc1C(=O)NCCc1ccccc1	-0.4	1	-20	1.6%	11%	2.3%	-2.0
COc1cc(NC(=S)NCc2cccnc2)c(OC)cc1Cl	-0.3	-3	-14	x	17%	-1.2%	-1.8
CN1CCN(C(=O)NC2CCCCC2)CC1	1.3	-7	25	-12%	-17%	-0.1%	8.2
Fc1ccc(-c2csc3ncnc(Cl)c23)cc1	1.1	-1	-1	0.9%	-3%	0.1%	1.9
COCCN(C(=O)Cc1cccs1)C(C(=O)NC1CCCC1)c1cc(OC)c(OC)c(OC)c1 (stereo not given)	0.3	-5	4	x	13%	-1.0%	2.0
CN(Cc1cccc(F)c1)C(=O)Cc1ccc(S(=O)(=O)N2CCOCC2)s1	-0.1	4	19	-4.7%	x	-0.5%	x
COc1cccc(NC(=O)C2=COCCO2)c1	-0.4	-16	2	0.6%	x	1.0%	x
CS(=O)(=O)N1CCN(c2ccccc2NC(=O)c2ccc3c(c2)OCCO3)CC1	0.3	19	1	x	12%	1.4%	2.7
O=C(OCC(=O)N1CCN(c2ccccc2)CC1)c1ccco1	2.3	5	8	-0.7%	1%	-0.5%	-0.1
CCc1ccc(NC(=O)Cn2nnc(C(=O)Nc3ccc(F)cc3)c2N)cc1	0.6	x	-20	1.3%	x	9.6%	x
O=C1NC2(CCCCCC2)C(=O)N1Cc1ccccc1Cl	-0.4	6	-4	x	8%	0.6%	-4.8
CC(C)C1Oc2ccccc2N(CC(=O)N(Cc2ccccn2)C2CC2)C1=O (stereo not given)	2.5	-18	0	0.5%	32%[activator]	-1.2%	3.0
CC(C)(C)c1ccc(Cn2ccc(-c3ccc4c(c3)OCO4)n2)cc1	1.9	5	17	-4.1%	-1%	3.0%	1.5
O=C1CC(NS(=O)(=O)c2ccc([N+](=O)[O-])cc2)CN1c1ccc(Cl)cc1 (stereo not given)	1.5	1	5	-1.6%	x	0.8%	x
COC(=O)[C@@]1(Cc2ccc(F)cc2)[C@H]2c3cc(C(=O)N(C)C)n(Cc4ccc(OC(F)(F)F)cc4)c3C[C@H]2CN1C(=O)c1ccccc1	x	-1	x	x	22%&24%	x	8.8&17
Cc1cccc(Cn2c(N3CCN(c4ccccc4)CC3)nc3c2c(=O)n(C)c(=O)n3C)c1	0.7	-2	8	-19%	-8%	x	1.6
O=C(Nc1cccc(Br)c1)c1cc(S(=O)(=O)N2CCCCC2)c[nH]1	1.2	x	-1	51%	x	2.2%	x
CCC(=O)Oc1ccc(C(=O)Nc2cccc(C(=O)c3ccccc3)c2)cc1	-0.4	u	-6	0.7%	13%	-0.3%	-0.5
CCOC(=O)C1CCN(C(=O)c2ccc(N(C)S(=O)(=O)c3ccc(OC)cc3)cc2)CC1	0.5	-3	-9	x	12%	-1.6%	-2.3
CCc1noc(C)c1C(=O)N1CCCC(N2CCN(c3cccc(Cl)c3)CC2)C1 (stereo not given)	0.1	1	10	x	3%	0.1%	x
CCOC(=O)CC(=O)CSc1ccc2nnc(-c3ccc(C)cc3)n2n1	-0.2	-4	-5	-4.3%	6%	2.0%[38.3 µM]	1.7
CCS(=O)(=O)n1nc(-c2ccc(OC)cc2)nc1N	-0.1	0	-28	x	9%	-0.3%	-2.6
COc1ccccc1N(C)c1cc2c(c3c1ccn3C)C1CCC2O1 (stereo not given)	2.1	x	53	4.4%	x	29%	x
CN(CCOc1ccccc1)C(=O)c1cc(-c2ccco2)nc2ccccc12	0.2	1	-6	4.3%	x	0.3%	x
COc1ccc(C(=O)COc2ccc3ccc(=O)oc3c2)c(OC)c1	0.5	10	5	u	-7%	u	x
Cc1cc(C)n(C(=O)c2ccc(C)c(Br)c2)n1	2.5	2	5	-1.8%	-7%	3.3%	1.2
COc1cccc(C2N(c3ccc(Cl)c(Cl)c3)C(=O)C3CCCN32)c1OC (stereo not given)	-0.1	-13	19	-0.6%	6%	-0.9%	0.5
CC(C)OP(=O)(c1ccc(N(C)C)cc1)C(Nc1ccccc1)c1ccccc1 (stereo not given)	2.2	x	29	x	-8%	18%	2.2
O=C(NNC1CC(=O)N(c2ccc3c(c2)OCCO3)C1=O)c1ccccc1 (stereo not given)	0.3	-4	-5	-0.7%	-5%	2.9%[38.3 µM]	4.4
CCOc1cc(/C=C2\SC(=Nc3ccc(F)cc3)N(c3ccc(F)cc3)C2=O)ccc1OCC(=O)O	x	-10	x	x	40µM*	x	16
CCOc1ccc(/C=N/Nc2ccc(Cl)nn2)c(O)c1	-0.1	2	-7	x	-1%	11%	-6.6
CC(C)N(C(=O)CSc1nnc(-c2ccc3c(c2)OCO3)n1C)C(C)C	0.2	u	-3	3.3%	11%	-0.6%	-2.9
COc1ccc2cc([C@H](C)C(=O)OCc3cn(CC(=O)c4ccc(O)cc4)nn3)ccc2c1	0.3	x	13	0.7%	x	2.1%	x
O=C(C1CC(c2ccccc2O)=NO1)N1CCCCC1 (stereo not given)	0.6	1	-3	0.3%	-23%	x	9.2

Next section.
SMILES	TRPML1 agonist	TRPV1 potentiator	TRPML1 inh	ClpP mod	Sfp inh	PINK1 modulator	Menin MLL FP FL
O=C(Nc1ccccc1F)c1ccn[nH]1	-0.6	4	13	x	-21%	0.7%	-0.6
C=CCN(Cc1ccco1)S(=O)(=O)c1ccc(Cl)cc1	0.5	-10	-10	0.9%	15%	3.2%	2.5
Nc1c(Cl)cc(/C=C2\C=Cc3ccccc32)cc1Cl	-0.6	x	x	-1.0%	x	1.6%	x
COCC(=O)n1nc(-c2ccccc2)nc1NCc1cccs1	0.7	9	3	x	19%	-1.1%	1.9
Cc1[nH]n(-c2ccc([N+](=O)[O-])cc2)c(=O)c1C=NCCN1CCN(C(=O)c2ccc(F)cc2)CC1	-0.6	-4	-6	-0.5%	11%	u	0.3
Cc1ccc(-c2noc(-c3ccoc3C)n2)cc1	0.4	-2	9	x	u	9.4%	25
N#Cc1ccccc1NS(=O)(=O)c1cc2c3c(c1)CCN3C(=O)CC2	1.0	-1	1	x	x	-2.9%	x
Clc1ccc(Cn2ncc3c(NCc4ccccc4)ncnc32)cc1	5.3	-2	5	-0.6%	-4%	2.2%	5.5
Cc1ccccc1OCC(=O)Nc1c(C(=O)Nc2ccccc2F)oc2ccccc12	0.8	x	4	-25%	x	0.4%	x
COc1ccc(OC)c(CN2CCN(C(=O)CCC(=O)c3cccs3)CC2)c1	-0.6	10	-10	-1.8%	x	-0.7%	x
COc1ccc(CCC(=O)OCC(=O)NC(=O)c2ccc(Cl)cc2)cc1	0.1	x	-1	6.2%	x	-2.6%	x
Cc1ccc(NC(=S)NC2CCN(Cc3ccccc3)CC2)c(C)c1	-0.3	0	-7	u	7%	2.1%	x

Rewritten field by field: four of the compounds above
Nc1c(Cl)cc(/C=C2\C=Cc3ccccc32)cc1Cl
  TRPML1 agonist = -0.6 | TRPV1 potentiator = x | TRPML1 inh = x | ClpP mod = -1.0% | Sfp inh = x | PINK1 modulator = 1.6% | Menin MLL FP FL = x

COCC(=O)n1nc(-c2ccccc2)nc1NCc1cccs1
  TRPML1 agonist = 0.7 | TRPV1 potentiator = 9 | TRPML1 inh = 3 | ClpP mod = x | Sfp inh = 19% | PINK1 modulator = -1.1% | Menin MLL FP FL = 1.9

Cc1[nH]n(-c2ccc([N+](=O)[O-])cc2)c(=O)c1C=NCCN1CCN(C(=O)c2ccc(F)cc2)CC1
  TRPML1 agonist = -0.6 | TRPV1 potentiator = -4 | TRPML1 inh = -6 | ClpP mod = -0.5% | Sfp inh = 11% | PINK1 modulator = u | Menin MLL FP FL = 0.3

Cc1ccc(-c2noc(-c3ccoc3C)n2)cc1
  TRPML1 agonist = 0.4 | TRPV1 potentiator = -2 | TRPML1 inh = 9 | ClpP mod = x | Sfp inh = u | PINK1 modulator = 9.4% | Menin MLL FP FL = 25
